Assay outcomes from PubChem.
MLL AF4-AF9 inh: inhibitors of AF4 peptide binding to AF9, primary screen, biochemical, AlphaScreen, biotin-AF4 peptide, FLAG-AF9, single point | Protein AF-9 (Homo sapiens), P42568 | inhibition, % at 10 µM | 350,000 compounds, 0.47% hits | AID 651704, 2012;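 active = every replicate reaching a set inhibition limit, whatever the replicate mean, cut at about 25% in these data; inconclusive = mean inhibition reaches that limit but some replicates miss it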;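 note: 0% = plate neutral control median and 100% = total signal loss; the record names both 10 and 1 µM as test concentration; the first replicate is given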
Target sequence (P42568 whole entry, looked up): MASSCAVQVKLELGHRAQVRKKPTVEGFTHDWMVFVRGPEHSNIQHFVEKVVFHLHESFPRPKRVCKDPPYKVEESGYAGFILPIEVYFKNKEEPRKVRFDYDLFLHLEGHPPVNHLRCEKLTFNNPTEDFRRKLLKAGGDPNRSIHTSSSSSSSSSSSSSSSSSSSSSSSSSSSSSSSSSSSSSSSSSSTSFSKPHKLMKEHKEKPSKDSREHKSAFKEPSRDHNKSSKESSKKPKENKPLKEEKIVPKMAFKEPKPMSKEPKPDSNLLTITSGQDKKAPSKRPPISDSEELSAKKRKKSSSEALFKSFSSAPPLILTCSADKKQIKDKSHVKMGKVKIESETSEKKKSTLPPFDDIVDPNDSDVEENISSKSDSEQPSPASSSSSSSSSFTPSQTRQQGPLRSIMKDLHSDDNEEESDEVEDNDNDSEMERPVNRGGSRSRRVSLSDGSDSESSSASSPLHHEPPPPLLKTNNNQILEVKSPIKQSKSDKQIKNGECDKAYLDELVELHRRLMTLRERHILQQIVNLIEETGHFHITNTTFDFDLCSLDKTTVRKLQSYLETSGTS
Numbers without * were called inactive; ? = inconclusive; & = joins results of further samples. A portion of the library. The share of hits here may be higher or lower than overall.

SMILES	MLL AF4-AF9 inh
C[C@@H]1CN([C@H](C)CO)S(=O)(=O)c2ccc(C#CC3(O)CCCC3)cc2O[C@H]1CN(C)C(=O)Nc1ccccc1	-6.8
COCC(=O)N1[C@H](CO)[C@@H](c2ccccc2)[C@H]1CN(C)C(=O)c1ccncc1	-9.0
COCC(=O)N1CC2(C1)[C@H](c1ccccc1)[C@H](CO)N2Cc1ccccc1OC	0.3
CC(=O)N(C)C[C@@H]1[C@H](c2ccc(-c3ccccc3F)cc2)[C@H](CO)N1C(C)=O	-2.4
COCC#Cc1cnc2c(c1)C(=O)N([C@@H](C)CO)C[C@@H](C)[C@H](CN(C)S(C)(=O)=O)O2	-9.7
CO[C@H](CN(C)C(=O)c1cnccn1)[C@@H](C)CN([C@H](C)CO)S(=O)(=O)c1ccc(F)cc1	1.5
Cc1ccc(S(=O)(=O)N(C)C[C@H]2OCCCC[C@H](C)Oc3ccc(NC(=O)Nc4ccc(C(F)(F)F)cc4)cc3C(=O)N([C@H](C)CO)C[C@@H]2C)cc1	0.5
C=CCN1[C@@H](C)[C@H](c2ccccc2)Oc2cccc(N3CCCC(C)C3)c2S1(=O)=O (some centres undefined)	-0.2
CO[C@H]1CN(C)C(=O)c2ccc(NC(=O)c3cnccn3)cc2OC[C@@H](C)N(CCc2ccccc2)C[C@@H]1C	4.5
CN1C(=O)c2cc(NC(=O)c3ccccc3Cl)ccc2OC[C@@H]2O[C@@H](CC(=O)O)CC[C@H]21	-0.8
O=C(C[C@@H]1CC[C@H](NC(=O)C2CCOCC2)[C@@H](CO)O1)NCc1ccncc1	-5.2
Cc1noc(C)c1S(=O)(=O)N(C)C[C@@H]1Oc2ccc(NC(=O)Cn3cnnn3)cc2CC(=O)N([C@@H](C)CO)C[C@@H]1C	-2.0

The list goes on, starting with the last 7 of the part before.
SMILES	MLL AF4-AF9 inh
CO[C@H](CN(C)C(=O)c1cnccn1)[C@@H](C)CN([C@H](C)CO)S(=O)(=O)c1ccc(F)cc1	1.5
Cc1ccc(S(=O)(=O)N(C)C[C@H]2OCCCC[C@H](C)Oc3ccc(NC(=O)Nc4ccc(C(F)(F)F)cc4)cc3C(=O)N([C@H](C)CO)C[C@@H]2C)cc1	0.5
C=CCN1[C@@H](C)[C@H](c2ccccc2)Oc2cccc(N3CCCC(C)C3)c2S1(=O)=O (some centres undefined)	-0.2
CO[C@H]1CN(C)C(=O)c2ccc(NC(=O)c3cnccn3)cc2OC[C@@H](C)N(CCc2ccccc2)C[C@@H]1C	4.5
CN1C(=O)c2cc(NC(=O)c3ccccc3Cl)ccc2OC[C@@H]2O[C@@H](CC(=O)O)CC[C@H]21	-0.8
O=C(C[C@@H]1CC[C@H](NC(=O)C2CCOCC2)[C@@H](CO)O1)NCc1ccncc1	-5.2
Cc1noc(C)c1S(=O)(=O)N(C)C[C@@H]1Oc2ccc(NC(=O)Cn3cnnn3)cc2CC(=O)N([C@@H](C)CO)C[C@@H]1C	-2.0
CO[C@H]1CN(C)C(=O)c2cc(NC(=O)Nc3ccc4c(c3)OCO4)ccc2OC[C@H](C)NC[C@@H]1C	7.0
Cc1nc2ccc(S(=O)(=O)CCC(=O)NCc3ccc(Cl)cc3)cc2s1	0.2
C[C@@H]1CN([C@H](C)CO)S(=O)(=O)c2ccc(C#Cc3ccncc3)cc2O[C@@H]1CN(C)C(=O)C1CC1	-0.3
CCOC(=O)[C@]12CCCC=C1N(Cc1ccc(Cl)cc1Cl)C(=O)[C@H](CC(=O)NCC13CC4CC(CC(C4)C1)C3)C2	2.5
CCOC(=O)C1=CCN(S(=O)(=O)c2cccc(Cl)c2)C1c1cccc(Br)c1 (centres undefined)	-2.3
C/C=C/c1ccc([C@@H]2[C@H](CO)N[C@H]2CN(CC(C)C)C(=O)c2ccccn2)cc1	3.8
CCC(=O)N1CC2(CCN(C(=O)Cc3ccccc3)CC2)c2c(n(C)c3cc(OC)ccc23)[C@@H]1CO	2.4
COc1cccc(-c2ccc([C@@H]3[C@@H](CO)N4CCCCN(C(=O)c5ccc(F)cc5)C[C@@H]34)cc2)c1	-7.8
CC(C)COC(=O)N(C)C[C@H]1OCc2cn(nn2)CCCC(=O)N([C@@H](C)CO)C[C@@H]1C	-2.9&-2.1
CN(C)C(=O)C[C@@H]1C[C@H]2c3cc(NC(=O)C4CCOCC4)ccc3O[C@H]2[C@@H](CO)O1	-1.5
Cc1ccc(S(=O)(=O)N(C)C[C@H]2Oc3c(NS(=O)(=O)c4cccs4)cccc3C(=O)N([C@@H](C)CO)C[C@H]2C)cc1	-1.0
CCCCN(C=O)c1c(CC)nc2c(OCc3ccc(S(C)(=O)=O)cc3)cccn12	-0.1
CC(=O)N(C)C[C@@H]1Oc2ncc(-c3cccc(F)c3)cc2C(=O)N([C@H](C)CO)C[C@@H]1C	-2.5
O=C1NC[C@H](CCCCN2C[C@H](Cc3ccc(O)cc3)N(CCc3ccc(O)cc3)C(=O)C2=O)N(Cc2ccccc2)C1=O	5.5
COc1ccc(N2CCN(CC(=O)Nc3c(C)cccc3C)CC2)cc1	-0.8
C[C@@H]1CN([C@H](C)CO)C(=O)c2cc(NC(=O)NC3CCCCC3)ccc2O[C@@H]1CN(C)Cc1ccc(-c2ccccc2)cc1	-0.8
C[C@@H]1CN([C@H](C)CO)C(=O)c2cccc(NC(=O)Nc3cccc4ccccc34)c2O[C@H]1CN(C)C(=O)Nc1ccc(C(F)(F)F)cc1	12
CC(C)CC#Cc1cnc2c(c1)C(=O)N([C@@H](C)CO)C[C@@H](C)[C@@H](CN(C)C(=O)CCN1CCCCC1)O2	0.3
COCCNC(=O)C1(C)CCCN(Cc2cn(C)c3ccccc23)C1 (centres undefined)	-1.3
Nc1ccccc1C(=O)NN=Cc1cccnc1	-1.5
COc1ccc(C[C@H]2CCc3cnnn3COC[C@H](C(C)C)NC2=O)cc1	-4.8
C[C@@H]1CN([C@H](C)CO)C(=O)c2cc(NS(=O)(=O)c3ccc(Cl)cc3)ccc2O[C@@H](C)CCCCO[C@H]1CN(C)C(=O)Nc1ccccc1	-2.4
C/C=C/c1ccc([C@H]2[C@@H](CO)N(C(C)=O)C23CN(C(=O)c2ccc(F)cc2)C3)cc1	5.5
Cc1noc(C)c1NC(=O)N(C)C[C@@H]1Oc2ccc(NC(=O)Cc3ccccc3)cc2CC(=O)N([C@H](C)CO)C[C@@H]1C	-2.9
Cc1noc(C)c1S(=O)(=O)Nc1ccc2c(c1)CC(=O)N([C@H](C)CO)C[C@H](C)[C@H](CN(C)S(=O)(=O)c1ccc(Cl)cc1)O2	0.7
Cc1ccc(S(=O)(=O)N(C)C[C@@H]2Oc3c(NC(=O)Nc4ccccc4)cccc3C(=O)N([C@H](C)CO)C[C@@H]2C)cc1	3.1
COc1ccc(S(=O)(=O)N(C)C[C@H]2OCCCC[C@@H](C)Oc3ccc(NC(=O)C4CCCCC4)cc3C(=O)N([C@@H](C)CO)C[C@H]2C)cc1	-2.6
C[C@@H]1CN([C@@H](C)CO)C(=O)CCCn2nncc2CO[C@H]1CN(C)C(=O)Nc1ccc2c(c1)OCCO2	-3.4
CN(C)C(=O)[C@@H]1[C@@H](CO)[C@@H]2Cn3c(ccc(-c4ccccc4)c3=O)[C@@H]2N1Cc1ccccc1F	-0.1
COc1cc(C(O)c2nc(-c3ccccc3OC)cs2)ccc1F (centres undefined)	-4.7
O=C(Nc1cc(Cl)cc(Cl)c1)N[C@@H]1CC[C@@H](CCNS(=O)(=O)c2cccc(F)c2)O[C@H]1CO	-0.6
C[C@H](CO)N1C[C@H](C)[C@@H](CN(C)C)Oc2c(NC(=O)C3CCOCC3)cccc2C1=O	-2.7
O=C(NC1CCCC1)[C@@H]1[C@@H](CO)[C@@H]2Cn3c(ccc(-c4cccnc4)c3=O)[C@H]1N2CCc1ccccc1	-0.3
COc1ccc(S(=O)(=O)Nc2ccc3c(c2)CC(=O)N([C@@H](C)CO)C[C@@H](C)[C@@H](CN(C)C(=O)NC(C)C)O3)cc1	-0.5
C[C@H]1CN([C@@H](C)CO)C(=O)c2cccc(NC(=O)c3ccncc3)c2O[C@@H]1CN(C)C(=O)Nc1ccc2c(c1)OCO2	-3.0
CCc1nc2ccc(C(=O)NCc3ccccc3OC)cn2c1N(C)Cc1ccc(OC)cc1	6.0

As entered above:
MLL AF4-AF9 inh result of COc1cc(C(O)c2nc(-c3ccccc3OC)cs2)ccc1F (centres undefined) is entered as -4.7
MLL AF4-AF9 inh result of C[C@@H]1CN([C@@H](C)CO)C(=O)CCCn2nncc2CO[C@H]1CN(C)C(=O)Nc1ccc2c(c1)OCCO2 is entered as -3.4

Next section
SMILES	MLL AF4-AF9 inh
CC(C)NC(=O)Nc1ccc2c(c1)CC(=O)N([C@@H](C)CO)C[C@@H](C)[C@H](CN(C)Cc1ccc(Oc3ccccc3)cc1)O2	13
COc1ccc2c3c([nH]c2c1)[C@H](CO)N(C(C)=O)CC31CN(C(=O)Nc2ccc(F)cc2)C1	1.8
CC(C)CC#Cc1ccc2c(c1)O[C@@H](CN(C)S(=O)(=O)c1cccc(F)c1)[C@H](C)CN([C@@H](C)CO)S2(=O)=O	2.7
Cc1noc(C)c1NC(=O)Nc1cccc2c1O[C@@H](CN(C)C(=O)Nc1c(C)noc1C)[C@H](C)CN([C@H](C)CO)C2=O	-0.5
COc1ccc2c3c(n(C)c2c1)[C@H](CO)N(C(C)=O)CC31CCN(Cc2ccccc2OC)CC1	0.9
O=C(C[C@@H]1CC[C@@H](NS(=O)(=O)c2ccc(F)cc2)[C@H](CO)O1)NCc1ccccc1F	-2.5
CCC(=O)Nc1ccc2c(c1)C(=O)N(C)C[C@@H](OC)[C@@H](C)CN[C@H](C)CO2	-1.9
C[C@@H]1CN([C@@H](C)CO)C(=O)CCCn2cc(nn2)CO[C@@H]1CN(C)C(=O)NC1CCCC1	0.1
COc1ccc(C(=O)N2C[C@@H]3[C@H](c4ccccc42)[C@@H](CO)N3C(=O)c2cccc(F)c2)cc1	-0.3
C[C@@H]1CN([C@@H](C)CO)C(=O)Cc2cc(NC(=O)Cn3cnnn3)ccc2O[C@H]1CN(C)Cc1ccccc1	8.2
CCCN(C(=O)C1CCCN(c2ncnc3c2nc2n3CCCCC2)C1)c1ccccc1C (centres undefined)	0.8
C[C@H](CO)N1C[C@H](C)[C@@H](CN(C)Cc2ccncc2)Oc2ccc(NS(=O)(=O)c3ccccc3)cc2CC1=O	4.5
COCCCNC(=O)[C@@]1(Cc2ccccc2N=[N+]=[N-])N=C(c2ccc(OCCCO)cc2)O[C@H]1c1ccccc1N=[N+]=[N-]	3.9
COc1ccc(S(=O)(=O)Nc2ccc3c(c2)C(=O)N([C@@H](C)CO)C[C@H](C)[C@@H](CN(C)C)OCCCC[C@H](C)O3)cc1	0.1
CNC[C@H]1OCCCC[C@@H](C)Oc2ccc(NC(=O)Nc3ccccc3)cc2C(=O)N([C@H](C)CO)C[C@H]1C	-0.8
O=C(NCCN1CCC(n2c(=O)[nH]c3ccccc32)CC1)c1cccc(F)c1	2.2
CC(=O)Nc1cccc(-c2ccnc3c2CC(C(=O)Nc2cccc(Oc4ccccc4)c2)O3)c1 (centres undefined)	-1.4
CC(C)(C)OC(=O)N1CCCC(C(=O)Nc2ccc(C(=O)NC3CC3)cc2)C1 (centres undefined)	-2.1
O=C(C[C@@H]1C=C[C@@H](NC(=O)c2ccncc2)[C@@H](CO)O1)NCc1ccncn1	-6.2
C[C@H]1CCCCO[C@H](CN(C)Cc2ccc3c(c2)OCO3)[C@@H](C)CN([C@@H](C)CO)C(=O)c2cc(NS(=O)(=O)c3ccc(Cl)cc3)ccc2O1	8.1
CCN1C[C@@H]2[C@@H]3C(=O)N(Cc4ccccc4)C(=O)[C@@H]3[C@](C)(C1=O)N2C(=O)c1ccc(C(F)(F)F)cc1	-5.0
COc1ccc(S(=O)(=O)Nc2ccc3c(c2)CC(=O)N([C@@H](C)CO)C[C@H](C)[C@@H](CN(C)S(=O)(=O)c2cccs2)O3)cc1	-1.7
CO[C@@H]1CN(C)C(=O)c2ccc(NC(=O)c3ccccc3)cc2OC[C@H](C)N(C(C)=O)C[C@@H]1C	-2.6
Cc1noc(C)c1S(=O)(=O)Nc1ccc2c(c1)CC(=O)N([C@H](C)CO)C[C@@H](C)[C@H](CN(C)S(=O)(=O)c1cccs1)O2	-2.2
CNC[C@H]1Oc2ccc(NC(=O)CCC(F)(F)F)cc2C(=O)N([C@H](C)CO)C[C@H]1C	-1.9
C[C@@H]1CN([C@H](C)CO)C(=O)c2cccc(NC(=O)Nc3ccc(C(F)(F)F)cc3)c2O[C@H]1CN(C)Cc1ccccc1	-0.4
C[C@@H]1CCCCO[C@@H](CN(C)CC2CC2)[C@H](C)CN([C@@H](C)CO)C(=O)c2cc(NC(=O)CCCN(C)C)ccc2O1	18
C[C@@H]1CCCCO[C@@H](CN(C)Cc2ccc(Cl)c(Cl)c2)[C@H](C)CN([C@@H](C)CO)C(=O)c2cc(NC(=O)Nc3ccc4c(c3)OCO4)ccc2O1	1.7
CN1C(=O)c2cc(NC(=O)C3CCCCC3)ccc2OC[C@H]2O[C@H](CC(=O)NCC3CCCCC3)CC[C@H]21	-17
CCCC#Cc1ccc([C@H]2[C@@H](CO)N3C(=O)CN(C(=O)Nc4cccc(F)c4)C[C@@H]23)cc1	4.1
COc1ccc(NC(=O)c2cc(-c3cc(F)ccc3OC)n[nH]2)c(OC)c1	-0.2
CC(=O)N1[C@@H](CO)[C@H](c2ccccc2)[C@@H]1CNC(=O)CN1CCOCC1	-1.5
CCCC(=O)Nc1ccc2c(c1)C(=O)N(C)[C@H]1CC[C@@H](CC(=O)NCCN3CCCCC3)O[C@@H]1CO2	0.8
COc1ccc([Si](C)(C)[C@H]2[C@H](CCO)O[C@@]3(C(=O)N(Cc4ccc(NC(C)=O)cc4)c4ccccc43)[C@@H]2C)cc1	1.9
C[C@@H]1CCCCO[C@@H](CN(C)CC2CCCCC2)[C@@H](C)CN([C@H](C)CO)C(=O)c2cc(NC(=O)CCCN(C)C)ccc2O1	?
O=C(C[C@H]1C=C[C@@H](NC(=O)Nc2ccccc2)[C@@H](CO)O1)NCc1cccc(F)c1	-2.4
